# Assay outcomes deposited in PubChem by several laboratories.
# eIF4H FP inh: inhibitors of RNA binding by human eIF4H | AID 2012 | hit rate 0.94% among 290,000 | eIF4H fluorescence polarization binding assay | inhibition, % at 35 µM;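 active = 50% or more with normal probe brightness, or confirmed in later tests; about a fifth of its hits are not listed in these tables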;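 also: calls also rest on retests at 20 µM and on dose response follow-up; 0% = protein and probe with vehicle and 100% = probe without protein; strong numbers were not always called active; many hits fall short of the cut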
# HIV Env fusion: inhibitors of HIV Env-mediated cell fusion | HeLa-JRFL Env/CEM21 cell fusion, luciferase | hit rate 1.1% among 360,000 | inhibition, % at 12.3 µM;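 active = mean replicate inhibition score of at least 50 and every replicate individually at or above 50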;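 also: 0% = plate neutral controls and 100% = maraviroc near 300 nM; one replicate is shown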
# MT1-MMP act inh: MT1-MMP (human) activation inhibition. P50281. AID 651647. GFP/RFP ratio change, % at 20 µM. HT1080 RFP-PRO-GFP cells, GFP/RFP ratio fluorescence, overnight; percent of plate control window, DMSO zero. hit rate 0.061% among 360,000;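 active = GFP/RFP ratio change of at least 30% with cell ATP level not reduced by more than half and red fluorescence within 50% of control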; also: strong numbers were not always called active
#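 Test system: HT1080 cells expressing an RFP-PRO-GFP fluorescent reporter construct / Compound dosing: single-point 20 µM compound, 1% DMSO / Schedule: cells overnight before dosing, compound overnight, 37 °C, 5% CO2 / Evaluation: GFP/RFP fluorescence ratio / Control set: DMSO and RFP-L50D-GFP cell wells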
# CSC inhib: cancer stem cell inhibition; hit rate 1.1% among 300,000; cancer stem cell-like cells viability, luminescence; inhibition, % at 7.5 µM;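 active = mean at 75% or more and at least half the replicates too; tested in HMLE shEcad cells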;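 also: 0% = median of negative and 100% = median of positive control wells; the first replicate is given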
# Rce1 inh: yeast Ras-converting enzyme inhibition; Q03530; yeast membranes, quenched prenylated peptide cleavage fluorescence; calls only; hit rate 0.27% among 290,000; AID 2563;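 active = fall in fluorescence gain of 50% or more versus controls, with final raw signal at or below 3038400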;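 also: plate controls were neutral control wells for no effect and wells lacking membranes for full effect; tested at 10 µM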
# PABP polyA inh: PABP-poly(A) binding inhibition | inhibition, % at 35 µM | hit rate 1% among 290,000 | AID 2014 | PABP-poly(A) RNA binding, fluorescence polarization;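 active = 50% or more with normal probe brightness, or confirmed in later tests; about a fifth of its hits are not listed in these tables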;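 also: calls also rest on retests at 20 µM and on dose response follow-up; controls were probe without protein and protein plus probe with vehicle; some compounds called inactive have numbers as strong as hits; many hits fall short of the cut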
# Target sequence (P11940 whole entry, looked up): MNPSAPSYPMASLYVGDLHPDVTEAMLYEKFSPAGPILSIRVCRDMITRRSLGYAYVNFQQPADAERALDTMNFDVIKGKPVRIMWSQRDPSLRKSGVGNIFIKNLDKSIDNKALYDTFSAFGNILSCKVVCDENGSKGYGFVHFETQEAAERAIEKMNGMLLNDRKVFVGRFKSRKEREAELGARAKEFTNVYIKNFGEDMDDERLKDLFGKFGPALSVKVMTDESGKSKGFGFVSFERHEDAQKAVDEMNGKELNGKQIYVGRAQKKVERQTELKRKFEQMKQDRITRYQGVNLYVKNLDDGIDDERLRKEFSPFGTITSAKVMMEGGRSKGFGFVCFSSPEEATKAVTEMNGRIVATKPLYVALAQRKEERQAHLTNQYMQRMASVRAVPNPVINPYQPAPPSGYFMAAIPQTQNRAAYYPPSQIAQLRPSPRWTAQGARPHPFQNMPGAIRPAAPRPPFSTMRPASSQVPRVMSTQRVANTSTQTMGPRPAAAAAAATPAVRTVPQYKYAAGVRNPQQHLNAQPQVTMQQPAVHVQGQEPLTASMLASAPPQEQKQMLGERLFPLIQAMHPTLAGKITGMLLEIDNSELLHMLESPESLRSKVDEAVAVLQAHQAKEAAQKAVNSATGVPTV
# UUG fidelity: alters start codon recognition fidelity in yeast. hit rate 0.13% among 350,000. AID 602363. S. cerevisiae UUG-firefly luciferase reporter, luminescence/redox ratio. activity score, % at 18.7 µM;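 active = replicate mean at a twofold rise or more, about +100% in these data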;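 also: firefly luciferase made from a UUG start codon reports start codon fidelity; reporter light over untreated wells divided by growth signal over untreated wells; some hits fall short of that in this replicate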
# MT1-MMP act inh RFP: further read-out of MT1-MMP act inh, marked with its call; RFP signal change, %; measured here: RFP expression control read;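 0 = vehicle wells; hits needed this value within 50% of zero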
# The depositor's hits bear a star; i = inactive; · = not tested or not shown.
SMILES,eIF4H FP inh,HIV Env fusion,MT1-MMP act inh,MT1-MMP act inh RFP,CSC inhib,Rce1 inh,PABP polyA inh,UUG fidelity
O=C(NC1CCCCC1)C(=S)NCc1ccccc1,-8.4,9.3,-2.2,-4.8,-9.4,i,-1.8,-6.1
COc1cc(-c2noc(C)c2C(=O)NCCc2c[nH]c3ccccc23)cc(OC)c1OC,-1.3,·,5.7,-0.9,26.8,i,-4.4,-8.2
CC(C)(C)NS(=O)(=O)c1ccc(OCC(=O)Nc2ccc3c(c2)OCCO3)cc1,-2.5,-11.4,0.2,3.7,·,i,-1.7,-0.9
CN(C)S(=O)(=O)c1cccc2nsnc12,-4.0,·,-3.4,4.2,-11.5,i,0.9,-20.6
COc1cccc2sc(N(CCCN(C)C)C(=O)C(c3ccccc3)c3ccccc3)nc12,-13.1,-42.1,-6.6,-12.6,19.9,i,-5.9,-9.7
NC(=O)NOCc1ncc(C(F)(F)F)cc1Cl,1.1,·,6.6,6.3,-0.1,i,-5.6,-12.0
COc1ccccc1CNc1ccc(CNc2ncn[nH]2)cc1,-6.7,3.7,2.5,1.1,1.1,i,19.0,·
CC1CCCC(C)N1CC(O)COc1ccc(Cl)cc1 (centres undefined),-2.0,·,-6.0,3.0,51.6,i,-4.2,-25.0
CS(=O)(=O)N(CC(=O)N1CCN(c2ccc(F)cc2)CC1)C1CCCCC1,-12.0,·,-1.0,-1.5,-5.7,i,-9.8,7.6
CC(=O)N1CCC(C(=O)Nc2nc(-c3ccccc3)ns2)CC1,-0.4,-15.3,4.1,-5.1,10.2,i,6.0,-16.6
COC(=O)N1[C@H](Cc2ccccc2)C=C[C@]1(C)C(=O)O,9.8,0.4,0.8,1.5,3.0,i,10.9,-13.7
Cn1c(C(=O)NCCCN2CCc3ccccc3C2)cc2c(=O)n(C)c3ccccc3c21,-0.1,-8.6,0.0,1.2,-29.8,i,5.7,-8.2
COc1ccc2nc3n(c(=O)c2c1)-c1ncccc1C(=O)NC3CC(C)C (centres undefined),·,0.0,1.9,2.4,·,·,·,-11.9
O=C(NCc1ccccn1)c1ccc(CNS(=O)(=O)c2cccc(Cl)c2)cc1,-1.2,4.3,2.2,1.9,-3.4,i,-2.4,-7.4
Cc1ccccc1-c1nnc(CS(=O)(=O)c2ccccc2)o1,0.4,-42.2,0.4,-1.4,10.7,·,3.3,-27.4
COc1ccc2cc(OCC(=O)NNC(=O)Nc3ccc(OC)c(OC)c3)ccc2c1,-19.8,7.3,-2.4,2.0,-2.5,i,-21.7,-20.6
CC(C)(C)c1ccc(OCCNC(=O)Cc2ccc(F)cc2)cc1,0.1,29.0,2.9,1.3,-2.1,i,-4.2,·
CCOC(=O)c1nn(-c2ccc3c(c2)OCCO3)cc1O,4.9,-34.3,3.4,5.7,-0.2,i,3.2,-31.6
COC(=O)CSC(=S)N1CCCC(C)C1 (centres undefined),-8.0,9.3,-0.8,1.3,8.2,i,8.7,·
Cc1ccc(C(=O)NCCSc2ccc(Cl)cc2)cc1[N+](=O)[O-],-2.1,·,8.8,3.1,25.2,i,-1.5,-3.9
CCCCN(CCCC)CP(=O)(c1ccccc1)c1ccccc1,-6.7,·,-5.5,0.6,3.9,i,-4.8,2.6
COCCn1c(C)cc(C(=O)CSc2ccc3ccccc3n2)c1C,62.2*,·,-10.1,-3.9,5.4,i,69.2*,4.8
Cc1cccc(NC(=O)CSc2nc3ccccc3nc2N2CCCCC2)c1,5.3,22.9,0.7,-2.1,42.6,i,-8.8,-11.8
Cc1cc(C)n(CCC(=O)N/N=C/c2ccc(Cl)c([N+](=O)[O-])c2)n1,-1.7,7.4,4.2,0.4,-0.6,i,-14.0,-16.4
CCCN(CC(=O)Nc1ccccc1OC)C(=O)c1cc(S(=O)(=O)NCc2ccccc2)ccc1C,21.0,35.0,1.9,1.4,-8.8,i,49.4,14.4
O=S(=O)(c1ccc(OCC(O)CNCc2ccco2)c(Cl)c1)N1CCOCC1 (centres undefined),4.9,·,-20.9,-4.1,·,i,-1.7,-8.3
O=C1C=C(Nc2ccc(Cl)cc2)CC(c2ccc(Cl)cc2)C1 (centres undefined),6.9,·,-1.9,-9.2,39.0,i,-4.2,-13.8
Cc1nnc(SCc2nc3ccccc3s2)n1-c1ccccc1,12.1,-90.3,-13.5,2.7,-14.3,i,1.4,-26.0
COc1ccc(NC(=O)CSc2nc(O)cc(=O)n2-c2ccc(OC)cc2)cc1,6.9,-1.2,1.2,5.5,-7.0,·,5.7,·
CCn1c(/N=C/c2ccccc2NS(=O)(=O)c2ccc(C)cc2)nc2ccccc21,-0.4,·,1.2,-0.2,28.2,·,0.3,-11.4
CCn1c(C)c(C)c2cc(C(=O)NCCCN3CCCCCC3)ccc21,2.6,2.4,3.6,-2.5,-3.2,i,-0.1,-1.7
CCCOc1ccc(C(=O)CCC(=O)OC(C)C(=O)Nc2ccc(NC(C)=O)cc2)cc1 (centres undefined),·,-0.2,-15.2,-7.2,-10.5,i,·,·
Cc1cc(C)cc(CC(CC(=O)Nc2ccc(Cl)cc2)C(=O)O)c1 (centres undefined),-10.6,22.3,-0.7,1.1,8.8,i,0.6,-11.1
COc1ccc(-c2cn3cccnc3n2)cc1NC(=O)c1ccc(Br)o1,-0.7,-29.9,4.8,-4.1,-6.8,i,1.1,-13.1
CCn1c(N)c(C(=O)NCC2CCCO2)sc1=S (centres undefined),1.7,·,0.7,1.5,-3.4,i,-1.9,-22.3
Cc1ccc(-c2c[n+](CC(=O)Nc3cc(=O)n(C)c(=O)n3C)c3n2CCC3)cc1,6.2,18.1,4.0,7.4,-15.4,i,11.5,-17.7
COc1ccc(CCNC(=O)CCc2ccsc2)cc1OC,2.9,7.6,0.0,-3.3,-3.7,i,1.0,1.5
CCC/C=N/NC(=O)C1COc2ccccc2O1 (centres undefined),2.5,-6.9,2.8,3.1,-12.2,i,1.7,·
CCOc1ccc(-c2nnc(SCC(=O)Nc3ccc4c(c3)c3ccccc3n4CC)n2N)cc1,1.1,-224.3,-3.5,-4.2,52.3,i,-13.5,-3.4
O=C(NNC(=O)c1sccc1-n1cccc1)c1cccs1,1.6,-17.0,3.2,0.6,-7.4,i,-12.0,-18.6
CC1=NC(C(F)(F)F)(C(F)(F)F)C2=C(CC(C)(C)CC2=O)N1Cc1ccco1,-7.9,·,1.5,2.4,-9.6,i,-2.4,-3.9
COc1cccc(C2C(C(=O)c3cccs3)=C(O)C(=O)N2c2cc(C)on2)c1 (centres undefined),-2.9,20.0,-0.6,1.4,·,·,6.9,-10.2
COc1ccc(C2CC(=O)OC3=C2C(=O)CC(C)(C)C3)c(OC)c1 (centres undefined),-5.2,-10.2,1.6,1.9,1.9,i,-6.8,1.6
CCOc1ccc(CC(=O)N/N=C/c2sccc2C)cc1,-7.1,-0.2,1.8,1.2,-6.8,i,3.5,2.8
Cc1nn(-c2ccccc2)c(N2CCCCC2)c1/C=N/NC(=O)c1ccncc1,9.1,1.9,1.5,0.8,-10.7,i,-11.2,·

# Exported with two lines to a compound: part of the list above
# Below each SMILES – eIF4H FP inh | HIV Env fusion | MT1-MMP act inh | MT1-MMP act inh RFP | CSC inhib | Rce1 inh | PABP polyA inh | UUG fidelity
O=C1C=C(Nc2ccc(Cl)cc2)CC(c2ccc(Cl)cc2)C1 (centres undefined)
 : 6.9 | · | -1.9 | -9.2 | 39.0 | i | -4.2 | -13.8
Cc1nnc(SCc2nc3ccccc3s2)n1-c1ccccc1
 : 12.1 | -90.3 | -13.5 | 2.7 | -14.3 | i | 1.4 | -26.0
COc1ccc(NC(=O)CSc2nc(O)cc(=O)n2-c2ccc(OC)cc2)cc1
 : 6.9 | -1.2 | 1.2 | 5.5 | -7.0 | · | 5.7 | ·
CCn1c(/N=C/c2ccccc2NS(=O)(=O)c2ccc(C)cc2)nc2ccccc21
 : -0.4 | · | 1.2 | -0.2 | 28.2 | · | 0.3 | -11.4
CCn1c(C)c(C)c2cc(C(=O)NCCCN3CCCCCC3)ccc21
 : 2.6 | 2.4 | 3.6 | -2.5 | -3.2 | i | -0.1 | -1.7
CCCOc1ccc(C(=O)CCC(=O)OC(C)C(=O)Nc2ccc(NC(C)=O)cc2)cc1 (centres undefined)
 : · | -0.2 | -15.2 | -7.2 | -10.5 | i | · | ·
Cc1cc(C)cc(CC(CC(=O)Nc2ccc(Cl)cc2)C(=O)O)c1 (centres undefined)
 : -10.6 | 22.3 | -0.7 | 1.1 | 8.8 | i | 0.6 | -11.1
COc1ccc(-c2cn3cccnc3n2)cc1NC(=O)c1ccc(Br)o1
 : -0.7 | -29.9 | 4.8 | -4.1 | -6.8 | i | 1.1 | -13.1
CCn1c(N)c(C(=O)NCC2CCCO2)sc1=S (centres undefined)
 : 1.7 | · | 0.7 | 1.5 | -3.4 | i | -1.9 | -22.3
Cc1ccc(-c2c[n+](CC(=O)Nc3cc(=O)n(C)c(=O)n3C)c3n2CCC3)cc1
 : 6.2 | 18.1 | 4.0 | 7.4 | -15.4 | i | 11.5 | -17.7
COc1ccc(CCNC(=O)CCc2ccsc2)cc1OC
 : 2.9 | 7.6 | 0.0 | -3.3 | -3.7 | i | 1.0 | 1.5
CCC/C=N/NC(=O)C1COc2ccccc2O1 (centres undefined)
 : 2.5 | -6.9 | 2.8 | 3.1 | -12.2 | i | 1.7 | ·
CCOc1ccc(-c2nnc(SCC(=O)Nc3ccc4c(c3)c3ccccc3n4CC)n2N)cc1
 : 1.1 | -224.3 | -3.5 | -4.2 | 52.3 | i | -13.5 | -3.4
O=C(NNC(=O)c1sccc1-n1cccc1)c1cccs1
 : 1.6 | -17.0 | 3.2 | 0.6 | -7.4 | i | -12.0 | -18.6
CC1=NC(C(F)(F)F)(C(F)(F)F)C2=C(CC(C)(C)CC2=O)N1Cc1ccco1
 : -7.9 | · | 1.5 | 2.4 | -9.6 | i | -2.4 | -3.9
COc1cccc(C2C(C(=O)c3cccs3)=C(O)C(=O)N2c2cc(C)on2)c1 (centres undefined)
 : -2.9 | 20.0 | -0.6 | 1.4 | · | · | 6.9 | -10.2

# The results go on:
SMILES,eIF4H FP inh,HIV Env fusion,MT1-MMP act inh,MT1-MMP act inh RFP,CSC inhib,Rce1 inh,PABP polyA inh,UUG fidelity
O=C(N/N=C/c1cccc([N+](=O)[O-])c1)c1c[nH]c2ccccc12,-4.2,-22.8,6.4,5.7,-4.6,i,-4.3,-6.0
c1ccc(-n2cnc3cc(NCc4ccccn4)ccc32)cc1,37.8,·,1.0,-3.9,-5.1,i,26.6,·
Cn1c(CCN2CCCCC2)nc2cc(NS(=O)(=O)c3ccc(Cl)cc3)ccc21,-12.8,9.0,-19.0,-16.6,4.7,i,-1.6,-7.3
CCOc1ccc(CN(C)CC(=O)NCc2ccccc2Cl)cc1,-9.3,-93.8,-1.7,-0.2,3.8,i,5.3,·
CC(=O)Nc1ccc(-c2nc3cc(Cl)ccc3o2)cc1,13.5,-255.4,1.2,-6.0,6.1,i,-9.7,-20.3
CCc1cc(C(=O)c2ccc(OC)cc2)c(NC(=O)CN2CCN(C)CC2)s1,-12.9,10.4,1.0,-0.4,-3.8,i,2.8,-3.2
O=C(C1CC(=O)N(c2ccccc2F)C1)N1CCOCC1 (centres undefined),·,·,1.4,3.8,-22.5,·,·,-14.2
Cc1ccccc1NC(=O)C1CCCN(S(=O)(=O)c2c(C)noc2C)C1 (centres undefined),2.1,-162.4,1.3,0.2,9.9,i,3.7,-16.6
COCCNc1nc(-c2cc(-c3ccc(Cl)cc3)on2)cc(C(C)C)n1,-3.7,-12.1,0.8,-2.9,6.4,i,2.7,-14.9
CC(=O)c1cccc(CN2CCC(CO)(Cc3ccccc3)CC2)c1,-3.3,12.9,1.6,3.5,8.5,i,1.0,·
COc1ccc(-c2nnc(SCC(=O)N3CCCCC3)o2)cc1OC,-3.9,3.3,2.7,2.3,·,i,1.0,-6.0
NC(=O)COC(=O)c1ccccc1OCc1ccc(Cl)cc1,0.2,-13.9,2.7,2.1,-11.3,i,-6.7,·
COC(=O)CSc1nnc(CNS(=O)(=O)c2ccc(C)cc2)n1C,3.8,·,-3.5,0.4,0.5,·,-1.7,-4.5
